Rango complex inh – inhibitors of Rango-importin beta complex formation. 0.031% of 340,000 active. AID 540263. Q14974. Rango CFP/YFP FRET sensor + importin beta, 45 min. Potency, µM (highest dose often 92.2 µM), for the others: at the top dose inhibition of complex formation; active = rising FRET ratio curve, often small or poorly fitted; inconclusive = mostly compound fluorescence or quenching in the first reads; inactive = flat curves in all reads;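 further: potency means the concentration at half of the fitted maximal effect; 0% = DMSO wells and 100% = buffer wells lacking importin beta; nearly all actives have a fitted effect of over 15% in size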
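FRET biosensor Rango (snurportin 1 IBB between N-terminal EYFP and C-terminal Cerulean), 50 nM in PBS/1 mM DTT/0.02% Tween-20/0.1% BSA, preincubated 5 min RT with compound; 0.125 microM importin beta added, 45 min RT, CFP/YFP FRET ratio read.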
GLA inh pH 4.5 – alpha-galactosidase A (human) inhibition, pH 4.5; P06280; purified enzyme, 4-MU-alpha-Gal fluorescence, pH 4.5; activity change, negative = inhibition, % at 105 µM; 230,000 tested, under 10 active; AID 1467; inconclusive = small, poorly fitted or top-dose-only inhibition, or a rising curve; inactive = flat fitted curve, though single readings scatter; no compound was filed as active;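 further: 0% = full activity with enzyme and -100% = basal without enzyme; dose as in the result columns while the protocol names 77 µM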
Target sequence (P06280 whole entry, looked up): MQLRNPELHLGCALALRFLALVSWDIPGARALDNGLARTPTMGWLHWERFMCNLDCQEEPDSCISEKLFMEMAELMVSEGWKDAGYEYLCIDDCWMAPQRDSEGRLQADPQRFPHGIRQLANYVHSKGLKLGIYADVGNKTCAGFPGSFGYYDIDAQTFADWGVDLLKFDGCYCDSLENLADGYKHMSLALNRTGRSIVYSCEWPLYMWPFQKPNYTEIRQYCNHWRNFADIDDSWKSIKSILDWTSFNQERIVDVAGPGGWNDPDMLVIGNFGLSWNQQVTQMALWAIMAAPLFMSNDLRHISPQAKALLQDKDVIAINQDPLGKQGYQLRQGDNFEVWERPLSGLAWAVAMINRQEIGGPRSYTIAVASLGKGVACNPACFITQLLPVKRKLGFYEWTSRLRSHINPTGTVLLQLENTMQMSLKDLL
miR-21 FLuc – miR-21 reporter, rising signal; HeLa miR-21 FLuc reporter, luciferase, 48 h; Potency, µM (doses to about 38.3 µM), for the others: top-dose reporter change, positive = more light; 340,000 tested, under 10 active; active = well fitted rising curve with a large enough effect; inconclusive = small, poorly fitted or top-dose-only effect; inactive = no such curve, though single readings can be large or run the other way;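 further: % of control where 0% means no effect; miR-21 action dims this reporter so a rising signal means less miR-21 action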
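Using DMEM plus 10% FBS, HeLa miR-21-FLuc cells are incubated with test compounds (final up to about 40uM) for 48 hours; firefly luciferase signal is then imaged following reagent-mediated lysis.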
Rango dissoc inh – inhibition of RanGTP-driven Rango-importin beta dissociation; O95149+P62826; AID 540253; Potency, µM (titrated, usually from 46.1 µM), for the others: top-dose activity change, negative = inhibition; Biochemical FRET Rango-importin beta, RanGTP-induced dissociation; 0.071% of 340,000 active; active means falling FRET ratio curve, often poorly fitted, with flat reads before Ran was added; inconclusive means other falling curves, or compound fluorescence or quenching; inactive means flat or rising ratio curve;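 further: potency means the concentration at half of the fitted maximal effect; % of control where 0% means no effect; nearly all actives have a fitted effect of over 45% in size; -100% = wells without RanGTP and RCC1; the record marks most hits as doubtful in a second field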
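FRET read at 45 min, room temperature: inhibitors block the CFP/YFP signal rise when RanGTP (0.6 uM Ran, 2 mM GTP, 0.2 uM RCC1) frees Rango (0.1 uM) from importin beta (0.25 uM). Pre-read after 5 min compound exposure flags interference.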
An asterisk follows results filed as active; u = inconclusive; x = not tested or not shown; & = joins results of further samples. These rows are one share of the data (hit frequency here may not be typical).

SMILES	Rango complex inh	GLA inh pH 4.5	miR-21 FLuc	Rango dissoc inh
CCc1ccc(-c2ccc3nnc(SCC(=O)NCC4CCCO4)n3n2)cc1 (configuration not stated)	1.3%	x	x	-16%
Cc1nn(Cc2ccc(F)cc2)c(C)c1NC(=O)c1cnn2cccnc12	4.3%	3	-2%	14%
COc1ccc(-n2nc3c(N4CCC(C(=O)NC5CCCCC5)CC4)nnc(C)c3c2C)cc1	-1.5%	x	-2%&-5%	-12%
OCC1OC(Oc2cccc3ccccc23)C(O)C(O)C1O (configuration not stated)	-0.6%	x	-5%	1%
CCc1ccc2[nH]c(C(=O)Nc3ccc(F)cc3Br)cc2c1	-3.4%	x	-11%	7%
O=C1c2cccc3cccc(c23)N1Cc1cccc(F)c1	u	x	-27%	u
COc1ccc(C2c3[nH]c4ccccc4c3CCN2CCCn2cccn2)c(F)c1 (configuration not stated)	1.6%	-12	0%	-15%
Cc1noc(-c2ccccc2)c1NC(=O)Nc1ccccc1	-0.5%	-16	0%	3%
Cc1cccc(C(=O)NCC(c2ccc(F)cc2)N2CCOCC2)c1 (configuration not stated)	-3.3%	3	-6%	1%
O=C(CN1C(=O)c2ccccc2C1=O)Nc1ccccc1C(=O)NC1CCCCCC1	3.6%	1	-5%	2%
Cc1ccc(/C=N/NC(=O)C2COc3ccccc3O2)s1 (configuration not stated)	0.6%	x	x	-9%
Cc1ccc(OCC(=O)N2CCOCC2)cc1C	1.5%	2	-53%	-6%
COc1cc(OC)c(OC)cc1/C=C1\CCC/C(=C\c2cc(OC)c(OC)cc2OC)C1=O	u	x	-2%	u
Cc1cccc(S(=O)(=O)NCCC(=O)OCC(=O)Nc2ccc(C#N)cc2)c1	-1.8%	-2	-5%	10%
COCCCNC(=O)C1CC(=O)N(CCc2ccccc2)C1 (configuration not stated)	1.5%	2	-2%	12%
O=C(Nc1ccccc1N1CCCC1)c1ccc(Cl)c(S(=O)(=O)N2CCOCC2)c1	-2.4%	x	x	-3%
COC(=O)c1ccccc1S(=O)(=O)N1CCC(NC(=O)C(Cc2cccc(OC)c2OC)NC(C)=O)CC1 (configuration not stated)	-3.7%	x	-1%	-17%
Cc1ccnc(SCc2cn3c(C)cc(C)nc3n2)n1	-3.1%	0	-12%	-13%
O=C(CCc1c[nH]c2ccccc12)N=Nc1c(O)[nH]c2ccccc12	-0.7%	-4	-16%	-8%
O=C(CSC(=S)N1CCCCC1)Nc1ncc2c(n1)CC(c1ccco1)CC2=O (configuration not stated)	-3.1%	6	6%	19%
CCN(CC)S(=O)(=O)c1ccc(C)c(NC(=O)CN2CCN(Cc3ccccc3)CC2)c1	2.6%	4	6%	1%
Cc1nc2[nH]onc2c2nccc(=O)c12	u	-8	1%	-22%
O=C(NCc1ccccc1Cl)C1CCCN(c2nc3ccsc3c(=O)s2)C1 (configuration not stated)	x	2	-1%	x
CC(=NC1CCCC1)c1c(C)[nH]n(-c2nc3ccccc3s2)c1=O	2.3%	0	-48%	-4%
CCOC(=O)c1cnc2ccc(OC)cc2c1NCCN1CCOCC1	-3.8%	x	-1%	-3%

Some entries already given, reduced to Rango complex inh:
SMILES	Rango complex inh
CC(=NC1CCCC1)c1c(C)[nH]n(-c2nc3ccccc3s2)c1=O	2.3%
O=C1c2cccc3cccc(c23)N1Cc1cccc(F)c1	u
CCOC(=O)c1cnc2ccc(OC)cc2c1NCCN1CCOCC1	-3.8%
O=C(CCc1c[nH]c2ccccc12)N=Nc1c(O)[nH]c2ccccc12	-0.7%
O=C(CSC(=S)N1CCCCC1)Nc1ncc2c(n1)CC(c1ccco1)CC2=O (configuration not stated)	-3.1%
Cc1cccc(C(=O)NCC(c2ccc(F)cc2)N2CCOCC2)c1 (configuration not stated)	-3.3%

Five structures already listed, arranged by count of non-hydrogen atoms, highest first.
SMILES	Rango complex inh	GLA inh pH 4.5	miR-21 FLuc	Rango dissoc inh
COc1cc(OC)c(OC)cc1/C=C1\CCC/C(=C\c2cc(OC)c(OC)cc2OC)C1=O	u	x	-2%	u
O=C(CSC(=S)N1CCCCC1)Nc1ncc2c(n1)CC(c1ccco1)CC2=O (configuration not stated)	-3.1%	6	6%	19%
Cc1cccc(S(=O)(=O)NCCC(=O)OCC(=O)Nc2ccc(C#N)cc2)c1	-1.8%	-2	-5%	10%
CC(=NC1CCCC1)c1c(C)[nH]n(-c2nc3ccccc3s2)c1=O	2.3%	0	-48%	-4%
CCc1ccc2[nH]c(C(=O)Nc3ccc(F)cc3Br)cc2c1	-3.4%	x	-11%	7%

Next section:
SMILES	Rango complex inh	GLA inh pH 4.5	miR-21 FLuc	Rango dissoc inh
CCOC(=O)CSc1nnc(-c2ccccc2OC)o1	0.3%	-4	-5%	5%
Cc1cc(-c2ccc3c(c2)COc2c4ccccc4nn2-3)on1	1.1%	x	x	-11%
Cc1ccc(-c2nc3ccsc3c(=O)o2)cc1	3.7%	1	-33%	6%
CCCCC(C)n1[nH]c(=O)c2c(C)cc(C)nc21 (configuration not stated)	-5.1%	6	-6%	-11%
CCOC(=O)N1CCN(C(=O)c2ccccc2-c2ccccc2)CC1	-1.6%	5	23%	-1%
O=C(N/N=C1/CCc2ccccc21)C1CC1	0.1%	-6	-28%	-3%
O=C(COC(=O)c1cc(Cl)ccc1[N+](=O)[O-])NC1CC1	-0.2%	x	x	-9%
O=C(CCCCl)OCc1cn(-c2ccc(Cl)cc2)nn1	-3.8%	-5	-3%	0%
Cc1c(C(=O)N2CCc3ccccc32)oc2ccccc12	3.9%	-12	-63%	9%
COc1ccc(C(CNC(=O)c2ccc(Br)o2)N2CCN(C)CC2)cc1 (configuration not stated)	-1.1%	x	x	1%
CCn1cc(CN2CCN(CC(C)(C)C)C(CCO)C2)c2ccccc21 (configuration not stated)	-2.1%	x	6%	-9%
CCc1ccc(C(C)NC(=S)NCc2ccc(F)cc2)cc1 (configuration not stated)	-0.6%	x	7%	9%
COC(=O)c1cc(NC(=O)c2ccc(C)cc2)c(=O)oc1C	0.2%	7	-24%	-9%
Cc1ccc2nsnc2c1S(=O)(=O)NCc1ccc2c(c1)OCO2	0.0%	-6	-7%	21%
Cn1c(N)c(C(=O)COC(=O)c2cc(C3CC3)nc3ccccc23)c(=O)n(C)c1=O	0.7%	-4&-12	-5%	4%
COc1cc2c(cc1OC)/C(=C/C(=O)c1ccccc1F)NCC2	u	x	-31%	u
COc1ccc(OC(C)C(=O)Nc2cccc(OC)c2)cc1 (configuration not stated)	-0.1%	-2	-10%	0%
Cc1ccc(NC(=O)c2cc(-c3ccc4c(c3)OCO4)on2)cc1C	0.2%	x	-19%	-7%
O=C(NCc1cccnc1)C1CCCN1S(=O)(=O)c1ccc(Cl)cc1 (configuration not stated)	4.2%	x	3%	12%
CC(C)n1c(N2CCN(C(=O)NCc3ccccc3)CC2)nc2ccccc21	0.4%	1	-11%	0%
Cc1nc2ccc(F)cc2cc1C(=O)NC(C)C	-3.1%	1	0%	-2%
OCCN(Cc1ccccc1)Cc1ccccc1F	-0.7%	0	-6%	-10%
COc1ccc(-c2nn(-c3ccccc3)cc2CNC[C@H]2O[C@@H](n3cnc4c(N)ncnc43)[C@H](O)[C@@H]2O)cc1	-2.5%	x	x	9%
C(=N\NC1=Nc2cccc3cccc1c23)/c1ccccc1	u	-11	-59%	0%
O=C(O)c1cn(-c2ccccc2)nc1-c1ccncc1	-0.6%	2	-2%	23%

Single records (already shown).
CCOC(=O)CSc1nnc(-c2ccccc2OC)o1 as listed: Rango complex inh = 0.3%; GLA inh pH 4.5 = -4; miR-21 FLuc = -5%; Rango dissoc inh = 5%
OCCN(Cc1ccccc1)Cc1ccccc1F as listed: Rango complex inh = -0.7%; GLA inh pH 4.5 = 0; miR-21 FLuc = -6%; Rango dissoc inh = -10%

(further entries)
SMILES	Rango complex inh	GLA inh pH 4.5	miR-21 FLuc	Rango dissoc inh
Cn1c(NC(=O)c2ccc(F)cc2)c(-c2cccs2)c(=O)c2ccccc21	3.6%	4	-6%	2%
CC1CCN(S(=O)(=O)c2ccccc2)CC1	0.2%	x	0%	2%
Cc1cc(OCC(=O)N2CCCC2)ccc1Cl	5.1%	12	-49%	-12%
O=C(CSc1nnnn1-c1ccc2c(c1)OCCO2)OC1CCCCC1	-5.0%	-7	-19%	13%
CCc1cc(C(=O)N(CC)CC(=O)Nc2ccc(OC)cc2)sc1C	0.1%	x	x	-1%
O=[N+]([O-])c1ccc(Cl)c(/C=N/n2c(-c3ccncc3)n[nH]c2=S)c1	5.2%	-9	7%	u
COc1cccc(C(=O)Nc2ccc(N3CCN(C(=O)c4cccs4)CC3)cc2)c1	1.4%	x	29%	-7%
COc1ccc(Oc2nc3c(C)cccn3c(=O)c2/C=C(\C#N)C(N)=O)cc1	u	-8	6%	u
C[C@H](NC(=O)[C@@H]1CSC2c3ccccc3C(=O)N21)C(=O)NC1CCCC1 (some centres not stated)	2.9%	x	1%	2%
O=C(CCCSc1ccccc1)Nc1nc(-c2ccco2)c(-c2ccco2)s1	-5.3%	0	-1%	-3%
Cc1ccccc1S(=O)(=O)/N=C(/Nc1c(C)n(C)n(-c2ccccc2)c1=O)c1ccccc1	0.7%	5	3%	-3%
CC(C)C[C@H](NC(=O)c1nc[nH]c1C(=O)N1CCc2ccccc2C1)C(=O)OCc1ccccc1	-0.8%	-11	9%	0%
Cc1ccc2c(c1)N(CC(=O)N1CCCCCC1)C(=O)c1cccnc1O2	1.7%	x	-8%	21%
CC(C)(C)C1CCC(=NNC(=O)C2COc3ccccc3O2)CC1 (configuration not stated)	-1.9%	x	x	0%
CC(C)Oc1cccc(C(=O)C2CCCN(C(=O)CCc3cnn(C)c3)C2)c1 (configuration not stated)	3.5%	x	-33%	-5%
[S-]C(=Nc1ccc(Cl)cc1)N[n+]1ccccc1	0.5%	10	-2%	12%
CC1CN(C(=O)CCNS(=O)(=O)c2ccc(Br)cc2)CC(C)O1 (configuration not stated)	-0.2%	x	x	1%
O=C(N=C1c2ccccc2CN1c1ccc(F)cc1)c1ccc(Cl)nc1	-0.4%	5	-27%	-7%
CCOC(=O)c1cc(NC(=O)C2C3C=CC(O3)C2C(=O)O)cc(C(=O)OCC)c1 (configuration not stated)	0.6%	x	-5%	-3%
O=C(NCc1ccc(F)cc1)C1CCN(S(=O)(=O)c2ccc(Br)s2)CC1	2.7%	x	7%	18%
O=C(CSc1nnc(-c2ccco2)n1Cc1ccccc1)NC(=O)NCc1ccco1	3.8%	-6	0%	-10%
COc1cccc(-c2cc(C(=O)O)no2)c1	5.6%	0	4%	20%

An excerpt of these results, with two lines to a compound.
Screens in order: Rango complex inh | GLA inh pH 4.5 | miR-21 FLuc | Rango dissoc inh
> COc1ccc(Oc2nc3c(C)cccn3c(=O)c2/C=C(\C#N)C(N)=O)cc1
→ u | -8 | 6% | u
> C[C@H](NC(=O)[C@@H]1CSC2c3ccccc3C(=O)N21)C(=O)NC1CCCC1 (some centres not stated)
→ 2.9% | x | 1% | 2%
> O=C(CCCSc1ccccc1)Nc1nc(-c2ccco2)c(-c2ccco2)s1
→ -5.3% | 0 | -1% | -3%
> Cc1ccccc1S(=O)(=O)/N=C(/Nc1c(C)n(C)n(-c2ccccc2)c1=O)c1ccccc1
→ 0.7% | 5 | 3% | -3%
